ID4 SMM: binders of human ID4 protein | P47928 | small molecule microarray, Flag-ID4 binding, fluorescence F/B | calls only | 1.2% of 31,000 active | AID 624137;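 active means spot signal over background at p below 0.07 in all four prints; compounds were printed on slides so no solution concentration is given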;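 further: a binder raises fluorescence above local background on the spot; about 2 pmol printed per array spot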
Target sequence (P47928 whole entry, looked up): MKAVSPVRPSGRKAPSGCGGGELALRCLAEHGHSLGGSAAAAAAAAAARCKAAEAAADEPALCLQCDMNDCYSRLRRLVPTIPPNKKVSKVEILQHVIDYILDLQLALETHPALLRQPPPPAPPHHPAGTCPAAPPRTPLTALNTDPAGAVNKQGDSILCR
Calls only; i = inactive; + = active, no number. This is a subset, so the mix of outcomes need not match the whole.

SMILES	ID4 SMM
CC(COc1ccccc1)NC(C)C(O)c1ccc(O)cc1 (centres undefined)	i
O=C(c1ccc(F)cc1)C1CCN(CCn2c(=O)[nH]c3ccccc3c2=O)CC1	+
C[C@@H](N)C1CCC(C(=O)Nc2ccncc2)CC1 (some centres undefined)	i
c1ccc(CC2=NCCN2)cc1	i
O=S(=O)(c1cccc2cnccc12)N1CCCNCC1	i
CN(C(=O)CCCOc1ccc2[nH]c(=O)ccc2c1)C1CCCCC1	i
CN1CCN(C(c2ccccc2)c2ccccc2)CC1	i
O=[N+]([O-])c1ccc(O)c(C(c2c[nH]c3ccccc23)c2c[nH]c3ccccc23)c1	i
CCOc1ccc(NC(=O)Cn2cc(C(=O)c3ccco3)c3ccccc32)cc1	i
CCOC(=O)c1ccc(N)cc1	i
CC(C(=O)O)c1ccc(C(=O)c2cccs2)cc1 (centres undefined)	i
CCN(CC)CCNC(=O)c1cc(Cl)c(N)cc1OC	i
O=C(CCNNC(=O)c1ccncc1)NCc1ccccc1	i
OCCN1CCN(CCCN2c3ccccc3Sc3ccc(Cl)cc32)CC1	i

4 of these compounds, reformatted.
CC(COc1ccccc1)NC(C)C(O)c1ccc(O)cc1 (centres undefined)
- ID4 SMM: i
O=C(c1ccc(F)cc1)C1CCN(CCn2c(=O)[nH]c3ccccc3c2=O)CC1
- ID4 SMM: +
C[C@@H](N)C1CCC(C(=O)Nc2ccncc2)CC1 (some centres undefined)
- ID4 SMM: i
c1ccc(CC2=NCCN2)cc1
- ID4 SMM: i

Screening results from PubChem BioAssay.
